Compound activity deposited in PubChem BioAssay by Fisher Drug Discovery Resource Center.
NPYLR7 agonist: activates Aedes aegypti NPYLR7 receptor; HEK293T NPYLR7/Galpha15, GCaMP6s calcium fluorescence; activation, % at 10 µM; 270,000 tested, 0.15% active; AID 1259423; in the data active means activation above about 40%;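 further: 0% = vehicle and 100% = reference agonist at the receptor; some compounds past the cut are filed as inactive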
NPYLR7 agonist max-min: second read-out of NPYLR7 agonist, no call of its own (marks repeat the call); activation, %; measured here: Max-Min RFU normalised activation; some inactives read as strong as hits;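 span of the calcium signal over five minutes; 0% = vehicle and 100% = native peptide agonist; compound fluorescence can raise it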
The depositor's hits bear a star; & = joins results of further samples. Some of the compounds tested; rates above refer to the full screens.

SMILES	NPYLR7 agonist	NPYLR7 agonist max-min
COc1ccc(-c2cc(C(=O)N/N=C\c3c[nH]c4ccccc34)[nH]n2)cc1	-3	-6
COc1cc(NS(C)(=O)=O)c(OC)cc1Cl	4	-2
COc1ccc2c(c1)C(C)(Cc1ccc(F)c(Cl)c1)C(=O)N2 (stereo unspecified)	2	6
CON(C)C(=O)c1cn(-c2ccccc2)nc1-c1ccccc1	13	17
CCCN(Cc1c(CC)nn(-c2ccc(F)cc2)c1N1CCN(C(C)C)CC1)C(=O)c1cc(OC)cc(OC)c1	7	20
CC(C)Cc1cc(CNC(=O)C2CC(=O)N(C)c3ccccc32)on1 (stereo unspecified)	3	2
O=C(O)C1OC2OC3(CCCCC3)OC2C2OC3(CCCCC3)OC12 (stereo unspecified)	1	8
COc1ccc(-c2cc(C(=O)N3CCc4ccccc4C3)n(-c3ccccc3)n2)cc1	-2	5
Cc1cc(C)c(NC(=O)CSc2nc(=O)n3cc(Cl)ccc3n2)c(C)c1	3	1
Cc1ccccc1NC(=O)CC(=O)NCC1(c2ccccc2)CC1(C)C (stereo unspecified)	22	12
Cc1ccc(C2SCCN2C(=O)c2ccc(F)cc2)s1 (stereo unspecified)	4	1
Cc1ccc(-n2c(=O)c3oc4ccccc4c3n(CC(=O)NC(C)(C)C)c2=O)cc1	-6	-9
CCOC(=O)c1ccccc1NC(=O)CSc1ccc2nnc(-c3ccc(F)cc3)n2n1	0	28
Cc1ccc(OCC2c3ccsc3CCN2C(=O)CN(CC2CCCO2)C(=O)c2ccco2)c(C)c1 (stereo unspecified)	-3	2
COc1ccc(S(=O)(=O)N2CCc3ccccc32)cc1	1	1
COCCNC(=O)c1c(-c2ccccc2Cl)noc1C	2	1
Cc1ccc(C(=O)N2C(C(=O)NCc3ccncc3)COC23CCN(C(=O)C2CC2)CC3)cc1 (stereo unspecified)	0	5
Cc1ccc(CN(C)C(C)C(=O)N2CCNC2=O)cc1 (stereo unspecified)	0	-2
Cc1cc(C)n(CC(C)NCCn2nc(C)c(Cl)c2C)n1 (stereo unspecified)	8	7
CCCN1CCN(c2nc3c(c(=O)[nH]c(=O)n3C)n2Cc2cccc3ccccc23)CC1	6	2
CCC(C)N=C(NC(=O)c1cccc(C)c1)OCC(C)C (stereo unspecified)	1	7
CCNC(=O)C1(C)CCCCN1Cc1ccc(C(=O)OCC)cc1 (stereo unspecified)	4	2
Fc1cc(C2=NCCn3cccc32)ccc1Cl	-3	-5
COCCNC(=O)C(NC(=O)c1ccc2c(c1)OCO2)C1CCN(C(=O)c2ccc(Cl)cc2)CC1 (stereo unspecified)	4	7
NS(=O)(=O)c1cccnc1N1CCC(Cc2ccccc2)C1 (stereo unspecified)	-1	-1
O=c1oc(-c2ccco2)nn1Cc1cc(Cl)c2c(c1)OCCCO2	7	3
Cc1ccc(C23CC4CC(CC(O)(C4)C2)C3)cc1NCN1C(=O)c2ccccc2C1=O	6	9
CC(C)C(NC(=O)c1ccccc1F)C(=O)Nc1ccc(N2CCCC2=O)c(Cl)c1 (stereo unspecified)	9	2
O=C(NCCN1C(=O)SC(=Cc2ccccc2)C1=O)c1ccncc1	5	-2
CN1CCN(c2ncc3c(=O)n(Cc4ccccn4)ccc3n2)CC1	1	5
CC1CCN(C(=O)c2ccc([N+](=O)[O-])cc2)CC1	2	0
CN(C(=O)c1ccc(C(=O)c2ccccc2)cc1)C1CCS(=O)(=O)C1 (stereo unspecified)	5	2
CCOc1ccccc1C1C(C(=O)OC)=C(C)N(C)C(C)=C1C(=O)OC	15	7
CC1CN(Cc2ccccc2)CC(C)C1N(C)C(=O)c1ccc(C(N)=O)cc1 (stereo unspecified)	-6	-5
Cc1ccc2oc(C(=O)N(C)Cc3nonc3C)c(C)c2c1	-2	-9
Cc1nc(=O)[nH]c(C)c1CCC(=O)N1CCCC(Nc2ccccc2)C1 (stereo unspecified)	30	15
O=C(CN1CCC(O)CC1)NC(c1ccccc1)c1ccc2nc(C(F)(F)F)[nH]c2c1 (stereo unspecified)	2	2
Cc1cc(-c2csc(N3CCOCC3)n2)c(C)n1-c1nccs1	6	3
CCCN(CC(N)=O)S(=O)(=O)N1CCCCC1	7	4
CN1CC(C(=O)NC2CCCC2Oc2ccccc2)CC1=O (stereo unspecified)	8	2
COCC(=O)Nc1ccc(Cl)cc1-c1nc2cc(Cl)ccc2o1	14	20
Nc1cccc(S(=O)(=O)Nc2ccc(SC(F)F)cc2)c1	20	39
CCc1ccc(S(=O)(=O)Nc2ccc3c(c2)N(CCOC)CCC3)s1	8	2
CCCCCCCCCCCC(=O)N1CCC2(CC1)NC(=O)c1cc(Cl)ccc1N2	27	30
O=c1c2cnc3ncnn3c2ccn1-c1cc(C(F)(F)F)ccc1Cl	9	15
O=c1nc(SCc2cccc(Cl)c2)c2c(n1Cc1cccnc1)CCC2	-1	-3
Cc1cc(C(=O)N2CCCC(CCc3c(F)cccc3F)C2)n(C)n1 (stereo unspecified)	0	-4
C#CCn1c(O)c(N=NC(=O)CNC(=O)/C=C/c2ccccc2OC)c2ccccc21	-3	-9
COc1ccc(CNC(=O)c2nnn(CC(=O)Nc3ccc(C(C)C)cc3)c2N)cc1	12	15
O=C(NCc1ccc2c(c1)OCO2)c1cccnc1N1CCN(C(=O)C2CCCC2)CC1	16	10
COc1cc(C)ccc1Oc1cc(N2CCN(C(=O)/C=C/c3ccccc3)C(C)C2)ncn1 (stereo unspecified)	6	2
O=C(Cn1c(=O)oc2ccc(Cl)cc21)N1CCCc2ccccc21	5	9
Cn1ccc(CN2CCCC2c2ccccc2)cc1=O (stereo unspecified)	-4	-5
CCOC(=O)CCC(=O)Nc1ccc(N2CCC(C)CC2)c(C(=O)NCC2CCCO2)c1 (stereo unspecified)	16	21
CNC(=O)CN1C(=O)NC(CC(C)C)C1=O (stereo unspecified)	6	4
COc1cc(OC)cc(C(=O)N2CCC[C@H]2C(=O)OCCc2ccc(OC)c(OC)c2)c1	-4	-11

Remaining list, next part:
SMILES	NPYLR7 agonist	NPYLR7 agonist max-min
CC1(C(=O)NS(=O)(=O)c2ccccc2)CCN1C(=O)Cc1ccsc1 (stereo unspecified)	0	-2
CNC(=O)c1cc(S(=O)(=O)N2CCC3(CCCO3)CC2)cs1	4	3
CCCCc1c(C)c2cc([N+](=O)[O-])c(O)c(C)c2oc1=O	-8	-12
Cc1ccc(CNC(=O)CSc2nccn3nc(-c4ccccc4)cc23)cc1	-3	-7
O=C(Nc1ncccc1OCC1CCCCC1)c1cscn1	2&6	1&-9
COc1ccc(Br)cc1/C=c1\sc2nc(=O)c(Cc3ccc(F)cc3)nn2c1=O	6	9
OCC1CCCCC1Nc1ncc(Br)cn1 (stereo unspecified)	1	0
O=C(NCc1ccccc1)c1cccc(OC2CCN(C3CCSCC3)CC2)c1	8	8
CC1=C[C@@H](CNS(=O)(=O)c2ccc(F)cc2)[C@H](C(C)C)C[C@H]1CC(=O)NCCN1CCOCC1	-11	-12
COC(=O)[C@]1(C)N[C@H](c2ccc(C#CC(C)(C)O)cc2)[C@@H]2C(=O)N(C)C(=O)[C@@H]21	13	11
Cc1ccccc1CN1CCCC(C(=O)Nc2ccccc2Oc2cccnc2)C1 (stereo unspecified)	2	0
CCOC(=O)c1c(NC(=O)C(C)C)c(-c2cccc(F)c2)cn1Cc1ccccc1	4	0
O=C(COc1ccccc1)N(CC(=O)N1c2ccccc2-n2cccc2C1c1cccc(Cl)c1)C1CC1 (stereo unspecified)	-2	4
CCS(=O)(=O)N1CCCC1c1ccccc1Br (stereo unspecified)	2	0
CCOc1c(C)cnc2c1c(=O)n(CC(=O)N1CCN(c3ccccc3)CC1)c(=O)n2C	1	-2
COCc1cc(C)nc(N/N=C\c2ccc(I)cc2)c1C#N	-23	-25
O=C(NCc1ccc2c(c1)OCO2)c1cccnc1N1CCN(C(=O)NCc2ccc(Cl)cc2)CC1	19	12
COC(=O)CC(=O)N[C@H](Cc1ccccc1)C(=O)N1CCC(C(=O)N2CCOCC2)CC1	27	24
CC(C)NC(=O)c1coc(CN(Cc2ccc(F)cc2)Cc2ccc(C(F)(F)F)cc2)n1	-8	14
CC(C)C(Sc1n[nH]c(COc2ccc(Cl)cc2)n1)C(=O)N(C)C (stereo unspecified)	-5	-8
Cc1cccc(C(C(=O)NCc2[nH]cc(C)c(=O)c2C)N(C)C)c1 (stereo unspecified)	13&15	10&15
Nc1nnnn1/N=C\c1ccc(-c2ccc(F)c(Cl)c2)o1	-8	-14
CCOc1ccc(Nc2ncccc2C(=O)N2CC(C)OC(C)C2)cc1 (stereo unspecified)	-5	-7
COCC(=O)N1CCN(c2nc(CC(C)C)nc3c2cnn3-c2ccccc2)CC1	0	0
Cn1c(=O)[nH]c(=O)c2c1nc(N1CCN(Cc3ccccc3)CC1)n2Cc1ccc(F)cc1	-9	-9
N#Cc1cccc(C(=O)Nc2ccc(S(=O)(=O)NC3=NCCCCC3)cc2)c1	2	1
COc1ccc(C)cc1N1C(=O)C(c2c(-c3ccccc3)[nH]n(C)c2=O)=C(N2CCCC2)C1=O	1	10
O=C(c1ccco1)N(Cc1c(-c2ccccc2F)noc1N1CCOCC1)CC1CCCO1 (stereo unspecified)	7	12
CN(C)C(=O)N1CCN(C(=O)CNC(=O)C(C)(C)C)CC1	5	5
COCCOc1nc(-c2ccc(Cl)c(Cl)c2)n(-c2cccc(NC(=O)c3ccco3)c2)n1	18	32
COc1ccc(C(C)=O)cc1Cn1c(C)c(C(=O)NCCC#N)sc1=O	12	3
COc1ccccc1C(=O)NCC1CCN(C2CCCCCC2)C1 (stereo unspecified)	2	-5
O=S(=O)(NCCn1ncc2c(N3CCOCC3)ncnc21)c1ccccc1	1	-2
COc1cc(-c2nc3ccccn3c2NC2CCCCC2)ccc1OC(=O)c1ccc([N+](=O)[O-])cc1	-3	8
CCCN(CCC)c1nc(N2CCOCC2)nc(N2CCOCC2)n1	-6	-4
COc1ccc(CN2CCN(Cc3ccc(Cl)cc3)CC2CCO)cc1C (stereo unspecified)	5	0
CCC1CN(Cc2cccc(CN3CCOCC3)c2)CCN1C(C)C (stereo unspecified)	-4	-11
CCOC(=O)C1(CCCc2ccccc2)CCN(C(=O)CSC)CC1	16	3
CCOC(=O)c1cc(-c2ccccc2)sc1NC(=O)c1ccc(C(C)(C)C)cc1	4	0
O=C(Cc1ccccc1)Nc1c(-c2cc(F)ccc2F)nc2ccccn12	-4	3
CCOC(=O)c1ccc(NC(=O)N2CCN(c3c4c(nc5ncnn35)CCCC4)CC2)cc1	21	9
CCOC(=O)C(C)Sc1nc2c(c(=O)n1-c1ccc(OCC)cc1)SCC2 (stereo unspecified)	-2	-4
O=C1c2nccnc2C(=O)N1c1ccc(Br)cn1	8	9
CCCC(=O)Nc1cccc(NC(=O)c2ccccc2Br)c1	-1	-2
CC(C)Cc1noc(CONC(=O)C(C)(C)c2ccccc2)n1	10	6
Cc1cc(C)n(-c2ccc(C(=O)NCCc3ccccc3F)cc2)n1	0	-3
CCn1c(-c2ccccc2OC)nn(CN2CCc3sccc3C2)c1=S	-1	-10
Cc1c(Cl)cccc1N1CN(C(=O)CN(Cc2ccco2)C(=O)c2ccccc2)CC1=O	10	8
CCOC(=O)Cn1nc(-c2ccccc2)c2ccccc2c1=O	2	2
O=c1n(CCCc2ccccc2)nc(C2CCCNC2)n1-c1ccccc1 (stereo unspecified)	8	5
CS(=O)(=O)c1cccc(-c2ccc3nnc(-c4cccc(C(F)(F)F)c4)n3c2)c1	3	-5
COCC(=O)Nc1cc(-c2ccco2)nn1-c1ccc(C(F)(F)F)cc1	9	-1
O=C1CCC(C(=O)N2CCC3(C=Cc4ccccc43)CC2)CN1CCN1CCOCC1 (stereo unspecified)	4	0

Structural class: those above containing a furan ring, fused or not
SMILES	NPYLR7 agonist	NPYLR7 agonist max-min
Cc1ccc(-n2c(=O)c3oc4ccccc4c3n(CC(=O)NC(C)(C)C)c2=O)cc1	-6	-9
Cc1ccc(OCC2c3ccsc3CCN2C(=O)CN(CC2CCCO2)C(=O)c2ccco2)c(C)c1 (stereo unspecified)	-3	2
O=c1oc(-c2ccco2)nn1Cc1cc(Cl)c2c(c1)OCCCO2	7	3
Cc1ccc2oc(C(=O)N(C)Cc3nonc3C)c(C)c2c1	-2	-9
Nc1nnnn1/N=C\c1ccc(-c2ccc(F)c(Cl)c2)o1	-8	-14
O=C(c1ccco1)N(Cc1c(-c2ccccc2F)noc1N1CCOCC1)CC1CCCO1 (stereo unspecified)	7	12
COCCOc1nc(-c2ccc(Cl)c(Cl)c2)n(-c2cccc(NC(=O)c3ccco3)c2)n1	18	32
Cc1c(Cl)cccc1N1CN(C(=O)CN(Cc2ccco2)C(=O)c2ccccc2)CC1=O	10	8
COCC(=O)Nc1cc(-c2ccco2)nn1-c1ccc(C(F)(F)F)cc1	9	-1
